# RanGTP-Imp inh = inhibitors of RanGTP-importin-beta interaction, primary screen, biochemical, FRET, CFP-Ran, YFP-importin-beta, homogeneous; Ran GTPase (GTP-bound) - importin-beta complex; cell-free CFP-Ran/YFP-importin-beta FRET ratio; inhibition, % (test concentration not listed); 300,000 compounds, 1.1% hits; AID 2216, 2009;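 active = most replicates above 15%; inconclusive = exactly half above 15%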;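 note: 0% = DMSO wells and 100% = Ran loaded with GDP instead of GTP; wells of about 40 µL received 100 nL stock; the first replicate is given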
# Bfl-1 A1 inh = caspase 3/7 activation in MEF A1-2A-BIM cells, primary screen, A1 inhibitor project, cell-based, luminescence, HTS; Caspase-Glo 3/7 luminescence, 3 h; percent of clofoctol response, vehicle zero; caspase activation, % (test concentration not listed); 330,000 compounds, 0.066% hits;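 active = over half of replicate activation scores above 10%, or exactly half above 10 with the replicate mean above 10; inconclusive = replicate mean below 10 yet half the replicates above 10; inactive = over half of replicates below 10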;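 note: wells of about 30 µL received 50 nL stock; many hits fall short of the cut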
# Beta apoptosis = inhibitors of cytokine-induced beta cell apoptosis, primary screen, luminescence; protection from apoptosis, % (no concentration beside the values); 300,000 compounds, 0.8% hits; INS-1E cytokine-induced death, ATP luminescence, 48 h; percent of positive-control rescue, neutral wells zero;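 active = all replicates at 75% or more, or half of them and the mean; inconclusive = half reach 75% but not the mean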;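 note: 0% = cytokine-treated negative control wells and 100% = positive control rescue; higher means more ATP so stronger rescue from cytokine killing; wells of about 40 µL received 100 nL stock; the first replicate is given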
# AF4-AF9 inh = inhibitors of AF4 peptide binding to AF9, primary screen, biochemical, AlphaScreen, biotin-AF4 peptide, FLAG-AF9, single point; Protein AF-9 (Homo sapiens), P42568; inhibition, % at 10 µM; 350,000 compounds, 0.47% hits;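 active = every replicate reaching a set inhibition limit, whatever the replicate mean, cut at about 25% in these data; inconclusive = mean inhibition reaches that limit but some replicates miss it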;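 note: 0% = plate neutral control median and 100% = total signal loss; the record names both 10 and 1 µM as test concentration; the first replicate is given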
# Target sequence (P42568 whole entry, looked up): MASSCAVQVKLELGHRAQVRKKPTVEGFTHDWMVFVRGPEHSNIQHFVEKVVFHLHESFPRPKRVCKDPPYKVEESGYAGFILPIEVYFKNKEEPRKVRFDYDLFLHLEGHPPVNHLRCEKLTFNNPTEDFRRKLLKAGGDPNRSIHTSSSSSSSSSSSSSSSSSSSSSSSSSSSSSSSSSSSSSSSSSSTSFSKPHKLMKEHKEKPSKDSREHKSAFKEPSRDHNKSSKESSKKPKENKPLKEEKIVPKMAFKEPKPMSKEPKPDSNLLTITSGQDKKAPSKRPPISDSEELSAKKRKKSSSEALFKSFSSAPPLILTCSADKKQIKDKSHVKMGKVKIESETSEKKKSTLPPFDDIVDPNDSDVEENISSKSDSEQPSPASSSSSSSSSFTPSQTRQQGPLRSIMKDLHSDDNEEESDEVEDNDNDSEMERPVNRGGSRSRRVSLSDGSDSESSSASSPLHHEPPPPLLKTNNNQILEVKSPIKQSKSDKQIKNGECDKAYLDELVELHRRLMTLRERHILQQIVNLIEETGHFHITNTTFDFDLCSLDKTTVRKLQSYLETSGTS
# Vif A3G = inhibitors of Vif binding to APOBEC3G peptide, primary screen, biochemical, TR-FRET, GST-Vif 1-94, biotin-A3G peptide, dose response retest (AID 1117319) | Virion infectivity factor (Human immunodeficiency virus type 1 group M subtype B (isolate … | TR-FRET GST-Vif / biotin-A3G peptide binding; higher % means a stronger effect; test concentration not given here; strong numbers were not always called active | inhibition, %, or IC50 in µM where a hit was titrated | 260,000 compounds, 0.57% hits;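 active = above the screen mean plus three standard deviations and confirmed in dose response; inconclusive = results disagree or hit not tested in dose response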;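 note: Vif residues 1-94 fused to GST binding biotinylated APOBEC3G peptide 110-148; 0% = full assay without inhibitor and 100% = GST in place of GST-Vif; retest series ran down from 100 µM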
# Calb FLC = C. albicans growth inhibition with fluconazole, primary screen, CaCi-2 strain, Alamar Blue fluorescence; C. albicans CaCi-2 (fluconazole-resistant clinical isolate) + fluconazole, 48 h; growth inhibition, % (concentration not given with the values); 300,000 compounds, 0.57% hits; AID 1979, 2009;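 active = most replicates above 75%; inconclusive = exactly half above 75%; inactive = most below 75%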;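 note: all wells also contain fluconazole at 8 µg/ml as a sub-toxic cotreatment; 0% = median of DMSO wells and 100% = median of geldanamycin control wells; wells of about 8 µL received 7.5 nL stock; the first replicate is given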
# LANA-H2B inh = blockers of LANA interaction with H2A/H2B – biochemical, FP readout, HTS, primary screen; Protein LANA1 (Human herpesvirus 8 type P (isolate GK18)), Q9QR71; cell-free LANA-H2A/H2B peptide, fluorescence polarization; inhibition, % (no concentration beside the values); 320,000 compounds, 0.6% hits; in the data active = inhibition mostly above about 10%, no sharp cut-off; inactive = mostly below about 6.7%;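 note: stock transfer was 7.5 nL into about 10 µL; 0% = median of vehicle wells and 100% = median of positive control wells; one replicate is shown; the record names a cut of 25% in any replicate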
# T cruzi repl = inhibitors of intracellular T. cruzi growth, primary screen, luminescence, NIH3T3 host cells | T. cruzi beta-gal in NIH3T3, 90 h | inhibition, % (concentration not given with the values) | 300,000 compounds, 1.4% hits | AID 1885, 2009;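 active = mean inhibition across valid replicates above about 55%, limit read from the data; inconclusive = mean below that limit but half or more replicates reach it; inactive = mean below it, under half of replicates reach it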;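 note: signal also drops with host cell toxicity which is not excluded here; 0% = plate median of DMSO wells and 100% = zero luminescence signal; higher percent means less beta-gal luminescence so fewer parasites; stock transfer was 50 nL into about 50 µL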
# * = called active by the depositor; ? = inconclusive; . = no result given.
SMILES,RanGTP-Imp inh,Bfl-1 A1 inh,Beta apoptosis,AF4-AF9 inh,Vif A3G,Calb FLC,LANA-H2B inh,T cruzi repl
CC(C)c1ccc(N(C)C(=O)Cc2c(C(=O)O)n(C)c3ccccc23)cc1,?,-1.4,-1,-1.7,-3%,36,5.9,0
COc1cc2c(cc1NC(=O)Cn1cnc3c1c(=O)n(C)c(=O)n3C)oc1ccccc12,2.9,.,.,.,2%,-9,.,-1
CCOc1ccc(NC(=O)C2CCCCN2S(=O)(=O)c2ccccc2)cc1 (stereo not given),-0.9,-0.8,-2,.,9%,-7,-1.1,-23
Fc1ccccc1-c1nc(-c2ccccc2)no1,1.1,-15,2,.,?,-1,-1.3,-16
Cc1cc2c(ncn2C)c(NS(=O)(=O)c2cc(Cl)ccc2Cl)c1C,-1.7,-1.1,-3,.,-2%,-8,-3.9,-1
CC(=O)Cc1nsc(Nc2ccc3c(c2)OCCO3)n1,-2.7,-0.3,0,.,>100µM*,-12,-6.4,-18
Nc1nc(-c2cccnc2)nn1C(=O)Cc1ccccc1,8.6,0.6,-16,.,0%,7,-1.2,-11
CCS(=O)(=O)N1CCC(C(=O)NCc2ccccc2OC)CC1,-1.3,0.7,1,.,-1%,-6,1.2,2
Cc1ccc(CNC(=O)CSc2nc3ccsc3c(=O)n2NC(=O)c2ccccc2)cc1,-0.1,-0.7,-7,.,2%,-6,-0.2,-4
CCOC(=O)C1CCN(CC(=O)Nc2ccc(OC)c(S(=O)(=O)N3CCCCC3)c2)CC1,.,1.0,1,6.5,-3%,.,-3.7,.
COc1cc(NC(=O)c2cccs2)c(C(=O)OCC(=O)NCc2ccco2)cc1OC,-2.4,-0.6,-5,.,21%,-6,0.3,-3
O=c1oc(-c2ccc(Br)cc2)nc2ccccc12,-3.3,-11,2,-2.2,.,9,-1.8,9
COc1cccc(C(=O)Nc2nc3c(s2)CN(C)CC3)c1,9.4,0.5,0,.,67%,-2,-4.2,-2
Cc1ccc2nc(-c3ccncc3)c(Nc3ccccc3)n2c1,0.1,-0.4,-9,-3.1,-4%,?,-0.8,43
CN1C(C(=O)NCc2ccccc2)CC2Cn3c(nc4cc(Cl)c(Cl)cc43)C21 (stereo not given),-3.0,-0.4,-3,3.8,13%,-8,-2.8,9
CCCc1cc(=O)oc2c(C)c(OC3CCCCC3=O)ccc12 (stereo not given),3.3,.,.,-0.9,8%,9,.,20
CN1CCN(c2cc3c(c4c2[nH]c2ccccc24)C(=O)CC(C)(C)C3)CC1,3.4,1.6,.,12,4%,101*,1.3,45
Cc1cccc(C)c1C(=NCCCN(C)C)c1ccccc1,-3.2,-0.1,1,.,2%,7,-4.4,23
CCN(CC)C(=O)c1[nH]cnc1C(=O)NCC(=O)OCc1ccccc1,0.0,0.6,-2,-1.6,.,-2,-4.2,4
CCSc1nc2ccc(OC)cc2cc1C#N,3.5,-1.2,1,.,-37%,5,-2.1,-1
NC(=O)Nn1c(CCC(=O)O)ccc1-c1ccc(F)cc1,-9.8,-0.6,3,.,4%,6,2.2,-9
CC(=O)/C(N=Nc1cc(C)ccc1O)=C(\C)O,-5.6,0.1,1,-1.6,31%,-40,2.8,2
O=C1OCCC1Sc1nnc(-c2ccccc2Br)n1Cc1ccccc1 (stereo not given),1.1,0.5,-6,2.1,-5%,-1,1.9,-11
CCCCc1ccc(NC(=O)C(=O)NCCN2CCN(Cc3ccc([N+](=O)[O-])cc3)CC2)cc1,5.7,-1.0,52,-1.2,-6%,-7,-0.2,6
c1ccc(-n2ncc3c(N4CCN(CCOc5cccc6ccccc56)CC4)ncnc32)cc1,-3.2,0.5,-3,.,14%,1,-13,39
# Continued:
SMILES,RanGTP-Imp inh,Bfl-1 A1 inh,Beta apoptosis,AF4-AF9 inh,Vif A3G,Calb FLC,LANA-H2B inh,T cruzi repl
CCCCNc1ccc(C(=O)Nc2cccc(C)n2)cc1[N+](=O)[O-],0.1,-2.7,9,.,1%,3,-3.4,27
COCCn1cnnc1SCC(=O)Nc1ccc(Br)cc1F,-1.9,0.4,-3,-5.2,.,4,1.7,-2
CCOc1ccc(CNS(=O)(=O)c2cc(-c3cc(C)no3)ccc2OC)cc1OC,2.3,-0.3,-2,3.4,-1%,-4,3.3,-13
c1ccc(-c2cc(N3CCCCC3)ncn2)cc1,-3.3,-1.1,-10,.,5%,-3,-1.1,3
Cc1ccc(N2CC(C(=O)Nc3c4c(nn3C(C)(C)C)CS(=O)(=O)C4)CC2=O)cc1 (stereo not given),0.9,0.7,-3,-2.0,.,7,2.5,1
CSc1ccc(CNCC(O)c2ccccc2)cc1 (stereo not given),-0.7,0.8,2,2.7,.,-5,0.5,7
O=C(OCc1nnc(-c2ccccc2)o1)C1CC(=O)N(Cc2ccco2)C1 (stereo not given),-5.1,0.3,-1,-2.0,8%,0,-0.1,-17
COc1ccc2sc(-c3ccc(S(C)(=O)=O)cc3)c(C#Cc3cncn3C)c2c1,.,-1.1,4,-3.8,.,.,8.2,.
CC(C)(C)OC(=O)NCCc1nnc(SCc2ccc(Cl)cc2)o1,3.6,-0.2,-1,.,9%,-13,2.2,-3
O=C(O)c1cc(-c2ccco2)nc2cc3ccccc3cc12,3.8,1.1,-5,5.7,?,-5,2.3,5
Cc1ccc(CSCCNS(=O)(=O)c2ccccc2)cc1,0.2,-0.6,3,.,.,-8,1.3,-11
Cc1cc2nc(CS)[nH]c2cc1C,5.7,-0.5,-5,0.4,-3%,14,-6.3,-14
O=C(NCCCN1CCOCC1)c1ccc2c(c1)N(Cc1cccc(Cl)c1)C(=O)c1ccccc1S2=O (stereo not given),3.9,0.1,0,4.3,5%,10,4.9,7
CS(=O)(=O)N1CCN(c2ccc([N+](=O)[O-])c(NCc3ccccc3)c2)CC1,1.5,-0.1,6,.,-5%,?,-9.9,12
COc1ccccc1C(=O)NCCC(=O)N(C)CC(=O)Nc1ccccc1Br,-0.7,0.3,-5,-2.2,5%,0,1.4,-2
Cc1ccc(NC(=O)CN(C)S(=O)(=O)c2cccc3nsnc23)cc1Cl,2.9,-1.0,4,.,19%,47,-6.7,11
Cc1cc(C)n2nc3nc4c(cc3c2n1)CCCC4,5.1,-1.1,-4,.,28%,-2,12,-4
CSc1ccccc1OCc1cc(C(=O)N2CCCC2c2nonc2C)no1 (stereo not given),6.9,-2.3,-7,-0.7,.,13,2.7,12
CCOc1ccc(OCC)c(NC(=O)CSc2nc3cccnc3n2C)c1,0.2,1.0,6,-18,6%,2,1.2,-2
Cc1cc(NC(=O)CSc2nnc(CNc3ccc(F)cc3)n2C2CCCCC2)no1,9.1,.,.,.,0%,28,.,8
Cc1cc(C(=O)O)ccc1-c1ccc(/C=N/n2cnnc2)o1,2.5,-0.2,6,-2.5,-3%,4,0.4,-4
CCOC(=O)c1sc(NC(=S)NC(=O)c2ccccc2Cl)c(C(=O)OCC)c1C,-2.8,1.5,-1,.,-5%,-1,-3.2,13
Cc1ccccc1-c1nnc(SCC(=O)Nc2ccc3c(c2)OCCO3)n1N,-0.3,0.9,.,.,4%,?,-2.5,3
COc1ccc(OC)c(N(CC(=O)O)S(=O)(=O)c2ccc(OC)c(OC)c2)c1,21*,0.6,.,.,10%,4,1.4,-9
CCN(CC)CCn1c2ccccc2c2nc3ccc([N+](=O)[O-])cc3cc21,0.4,-0.1,35,2.7,0%,4,-0.6,43
# The list continues.
SMILES,RanGTP-Imp inh,Bfl-1 A1 inh,Beta apoptosis,AF4-AF9 inh,Vif A3G,Calb FLC,LANA-H2B inh,T cruzi repl
Cc1noc(NS(=O)(=O)c2ccc(NC(=O)c3ccoc3C)cc2)c1C,-0.7,-5.9,-4,.,11%,-7,1.4,-12
COC(=O)[C@@]12CCCCN1[C@H](c1ccc(SC3CCCCC3)c(OC)c1)[C@@H]1C(=O)N(C)C(=O)[C@@H]12,-2.5,-0.2,5,5.3,.,6,-4.6,28
CC(=O)N1CCN(C(=O)COC(=O)CNC(=O)c2ccccc2C)CC1,3.3,0.7,-2,-0.5,6%,-5,0.9,-13
CCCc1nnc(SCC(=O)N2CCOCC2)n1C,-1.1,-1.4,-8,.,-4%,3,-5.0,-3
COc1cc2cc(Oc3ccc4ccc(=O)oc4c3)c(=O)oc2cc1OC1OC(COC(=O)CC(C)(O)CC(=O)O)C(O)C(O)C1O (stereo not given),3.6,0.3,-1,2.5,11%,-4,-1.3,-11
CCN(C(=O)CN1C(=O)NC2(CCc3ccccc32)C1=O)C1CCS(=O)(=O)C1 (stereo not given),.,-0.3,3,-2.4,-6%,.,-2.2,.
Cc1nnc(SCc2c(Cl)cccc2Cl)s1,1.4,0.8,-3,.,-2%,-6,0.8,11
COc1ccc(N2C(=O)CSC2c2cccc(F)c2)c(OC)c1 (stereo not given),-2.1,0.4,-3,.,2%,36,5.1,-7
COc1ccc(OC)c(N(CC(=O)Nc2cccnc2)S(=O)(=O)c2ccccc2)c1,4.0,0.5,-1,.,-1%,6,1.7,-13
O=C(NC(=O)c1cccc(F)c1)OC[C@@H]1CCCN2CCCC[C@H]12,0.5,0.3,0,0.3,2%,2,1.0,0
O=C1OCCC1N1C(=O)c2ccccc2S1(=O)=O (stereo not given),3.3,0.6,-3,.,2%,-5,2.1,-19
Cc1ccc(OCC(=O)N2CCN(C(=O)c3cccc(F)c3)CC2)cc1,3.3,-1.0,-3,-13,-8%,-7,-9.4,-4
CCOc1cccc(C(=O)Nc2cccc(C(=O)NCC(C)C)c2)c1,1.0,1.0,-1,-25,-8%,23,0.9,-14
CCn1c(SCC(N)=O)nc2c1c(=O)n(C)c(=O)n2C,-1.8,-0.2,-5,.,12%,3,0.1,-17

# Record cards, as listed above. Order of screens: RanGTP-Imp inh | Bfl-1 A1 inh | Beta apoptosis | AF4-AF9 inh | Vif A3G | Calb FLC | LANA-H2B inh | T cruzi repl
# CCCc1nnc(SCC(=O)N2CCOCC2)n1C in the list: -1.1 | -1.4 | -8 | . | -4% | 3 | -5.0 | -3
# COc1ccc(N2C(=O)CSC2c2cccc(F)c2)c(OC)c1 (stereo not given) in the list: -2.1 | 0.4 | -3 | . | 2% | 36 | 5.1 | -7
# CCOc1cccc(C(=O)Nc2cccc(C(=O)NCC(C)C)c2)c1 in the list: 1.0 | 1.0 | -1 | -25 | -8% | 23 | 0.9 | -14
# Cc1ccc(OCC(=O)N2CCN(C(=O)c3cccc(F)c3)CC2)cc1 in the list: 3.3 | -1.0 | -3 | -13 | -8% | -7 | -9.4 | -4
# O=C1OCCC1N1C(=O)c2ccccc2S1(=O)=O (stereo not given) in the list: 3.3 | 0.6 | -3 | . | 2% | -5 | 2.1 | -19

# Screens from PubChem BioAssay.
